# Screening data (PubChem)
# KCNQ2 block: KCNQ2 channel blockers in CHO-K1 cells – cell-based, FluxOR thallium flux, B-score, primary screen (AID 2156). O88943. 20 min; hits give low values; only compounds with negative scores are shown here; some inactives read as strong as hits. B-score at 10 µM. 310,000 compounds, 1.1% hits;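 active = fluorescence ratio B-score at most minus 3 library SDs, with starting brightness B-score within 2 library SDs, cut at about -5.5 in these data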
# Target sequence (O88943 whole entry, looked up): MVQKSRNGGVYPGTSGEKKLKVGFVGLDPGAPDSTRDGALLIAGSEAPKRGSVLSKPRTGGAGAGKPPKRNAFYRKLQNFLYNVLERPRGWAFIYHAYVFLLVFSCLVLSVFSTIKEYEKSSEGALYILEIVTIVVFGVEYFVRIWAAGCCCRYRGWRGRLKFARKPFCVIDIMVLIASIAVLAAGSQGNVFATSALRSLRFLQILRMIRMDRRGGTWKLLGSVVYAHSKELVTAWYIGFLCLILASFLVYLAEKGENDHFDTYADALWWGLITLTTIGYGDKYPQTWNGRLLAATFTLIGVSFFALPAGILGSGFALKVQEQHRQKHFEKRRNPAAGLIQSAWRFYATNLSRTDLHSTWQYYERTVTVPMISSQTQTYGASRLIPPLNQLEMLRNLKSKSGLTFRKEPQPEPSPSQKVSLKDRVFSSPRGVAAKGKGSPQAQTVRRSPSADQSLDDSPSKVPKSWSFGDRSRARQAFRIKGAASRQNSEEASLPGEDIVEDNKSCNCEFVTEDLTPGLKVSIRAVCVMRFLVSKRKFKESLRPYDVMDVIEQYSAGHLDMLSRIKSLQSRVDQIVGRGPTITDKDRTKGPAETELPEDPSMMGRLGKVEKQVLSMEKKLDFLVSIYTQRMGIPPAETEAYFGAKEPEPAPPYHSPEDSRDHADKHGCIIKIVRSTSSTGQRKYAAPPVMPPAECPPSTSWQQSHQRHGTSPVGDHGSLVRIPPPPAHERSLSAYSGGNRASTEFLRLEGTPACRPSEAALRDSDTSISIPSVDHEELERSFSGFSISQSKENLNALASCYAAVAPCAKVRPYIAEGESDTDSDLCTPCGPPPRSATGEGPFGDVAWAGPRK
# KCNQ2 block baseline: recorded beside KCNQ2 block, whose call it bears; B-score; measured here: initial fluorescence intensity artifact check;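 brightness before thallium and not channel activity; 0 = typical well and far values either way flag optical interference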
# An asterisk follows results filed as active; i = inactive. A portion of the library; rates above refer to the full screens.
no.	Structure	KCNQ2 block	KCNQ2 block baseline
1	CN1C(=O)c2ccccc2N(C)C1c1cccc(O)c1 (configuration not stated)	i	0.19
2	Cc1ccc(C(=O)N(C)CC(=O)Nc2ccc(N3CCOCC3)cc2)s1	i	-0.04
3	CCCC(=O)NNC(=O)CCC(=O)Nc1ccccc1Cl	i	-0.65
4	CCc1ccc(OCCCC(=O)NCc2ccccc2)cc1	i	-1.6
5	Cc1ccc(NCc2nnc3n2CCCCC3)c(C)c1	i	-0.57
6	COCCOC(=O)C1=C(C)NC2=C(C(=O)CC(C)(C)C2)C1c1cccnc1 (configuration not stated)	i	-0.39
7	COc1ccccc1Oc1ccc2c(c1)C(=O)N(c1ccccc1)C2=O	i	-0.01
8	Cc1ccc(S(=O)(=O)N2CCN(C(=O)CN3CCOCC3)C2C(C)C)cc1 (configuration not stated)	i	0.87
9	COc1cc(NC(=O)c2cnc(NCc3ccccc3)nc2C)cc(OC)c1OC	i	-2.4
10	O=C(c1ccc(Br)cc1)N(c1ccccn1)C1CCCCC1	i	2.6
11	CC(=O)Nc1cccc(OCC(O)Cn2cnc3ccccc32)c1 (configuration not stated)	i	1.8
12	Cc1ccc(NC(=O)C(c2ccccc2)c2ccccc2)nc1	i	-0.83
13	Cc1cccc(-n2c(N)c(C(=O)NCCN3CCOCC3)c3nc4ccccc4nc32)c1	i	0.01
14	CC(C)(C)C(=O)CN1C(=O)NC2(CCCc3ccccc32)C1=O (configuration not stated)	i	0.04
15	COc1ccc(CCNC(=O)C(=O)NCCC2CCCCN2S(=O)(=O)c2cccs2)cc1 (configuration not stated)	i	-0.76
16	CCN(/C=N/c1sc2c(c1C#N)CCCCC2)CC	i	0.68
17	COc1ccc(Cl)cc1N(CC(=O)N/N=C/c1ccc(OCC(N)=O)cc1)S(C)(=O)=O	i	1.2
18	COCCn1c(=NC(=O)CN2C(=O)CCC2=O)sc2cc(S(N)(=O)=O)ccc21	i	2.6
19	Cc1ccc(NC(=O)c2sc(Cl)nc2-c2ccccc2)cc1	i	0.68
20	N#Cc1c2n(c3c(=O)n(Cc4ccccc4Cl)cnc13)CCCC2	i	-0.39
21	O=C(CNC(=O)c1nc[nH]c1C(=O)N1CCc2ccccc2C1)OCc1ccccc1	-5.6*	-0.95*
22	Cc1nc(N)sc1C(=O)NN	i	0.07
23	O=C(NC1CCSc2ccccc21)c1cccc(S(=O)(=O)N2CCOCC2)c1 (configuration not stated)	i	-1
24	Cc1ccc(CNC(=O)C2CCC(=O)N2C(C)C)cc1 (configuration not stated)	i	-0.89
25	Cc1csc(CN(C)C(=O)C2CCC(=O)N(CCCc3ccccc3)C2)n1 (configuration not stated)	i	-0.93
26	COc1ccccc1NS(=O)(=O)c1cc(N)ccc1N1CCCCC1	i	-0.68
27	O=C(NNC1CC(=O)N(c2ccccc2)C1=O)c1ccco1 (configuration not stated)	i	0.42
28	COC(CNC(=O)C(=O)Nc1cc2c3c(c1)CC(=O)N3CCC2)OC	i	1.1
29	COCCN(C(=O)COC(=O)CSc1ccc2ccccc2c1)c1c(N)n(Cc2ccccc2)c(=O)[nH]c1=O	i	-1.1
30	COc1cc(NC(=O)C2CCN(c3cnccn3)CC2)cc(OC)c1	i	0.06

# In the list so far, three contain a thiophene ring, fused or not:
no.	Structure	KCNQ2 block	KCNQ2 block baseline
2	Cc1ccc(C(=O)N(C)CC(=O)Nc2ccc(N3CCOCC3)cc2)s1	i	-0.04
15	COc1ccc(CCNC(=O)C(=O)NCCC2CCCCN2S(=O)(=O)c2cccs2)cc1 (configuration not stated)	i	-0.76
16	CCN(/C=N/c1sc2c(c1C#N)CCCCC2)CC	i	0.68

# (next part)
no.	Structure	KCNQ2 block	KCNQ2 block baseline
31	C/C(=N\NC(=O)c1cccc(F)c1)c1cccc(NC(=O)c2ccc(F)cc2)c1	i	-0.36
32	CCCCNc1nc2c(c(=O)n(Cc3ccccc3)c(=O)n2C)n1C	i	-1.4
33	CCC(=O)NC(C)C(c1cccs1)N1CCOCC1 (configuration not stated)	i	0.01
34	CC1(C)CC(=O)C=C(Nc2ccccc2C#N)C1	i	2.5
35	O=C(NCCNC(=O)c1cc(Cl)ccc1Cl)c1cnccn1	i	1.5
36	O=C(Nc1ccccc1Cc1ccccc1)C1CC(=O)N(c2ccc3c(c2)OCCO3)C1 (configuration not stated)	i	0.66
37	NC(=S)N/N=C1\CC(n2nnn(-c3cccc(Cl)c3)c2=S)C2COC1O2 (configuration not stated)	i	-2
38	O=C(C1=C[C@H](c2csc3ccccc23)C[C@H](OCCCCO)O1)N1CCN(Cc2ccc3c(c2)OCO3)CC1	i	0.67
39	COC(=O)c1[nH]c2ccc(F)cc2c1NS(=O)(=O)c1ccc(OC)cc1OC	i	-0.01
40	N#Cc1nc(COc2cccc(Cl)c2)oc1N1CCN(c2ccccc2)CC1	i	1.7
41	Cc1ccc(C)n1NC(=O)c1cccc(Cl)c1	i	-1.1
42	COC(=O)c1c(NC(=O)/C=C/c2ccco2)sc2c1CCC2	i	0.45
43	Cc1ccc(C(=O)N(C)c2nnc(-c3ccncc3)s2)cc1	i	0.4
44	O=C(NC1CCCCC1)N1CCN(S(=O)(=O)c2ccc(F)cc2)CC1	i	-1.5
45	O=C1N(Cc2cccc(Cl)c2)C[C@@H]2C[C@@H](c3ccco3)N3CCC[C@@]123	i	-0.15
46	Cc1c(CN2CCC(n3nccc3NC(=O)c3cccc(F)c3)CC2)cnn1C	i	-0.18
47	COc1cccc(CC(NC(C)=O)C(=O)NC2CCN(S(=O)(=O)c3cccc4ccccc34)CC2)c1 (configuration not stated)	i	1.2
48	[O-][N+]1=C(c2cccs2)CN(O)C1	i	0.04
49	CCOc1ncccc1C(=O)Nc1nnc(C)s1	i	-0.43
50	CCc1cccc(CC)c1NC(=S)NCCc1c(C)[nH]c2ccc(C)cc12	i	-0.13
51	CCc1nnc(NC(=O)c2ccc(S(=O)(=O)N3CCCC(C)C3)cc2)o1 (configuration not stated)	i	-1.3
52	C=CCn1c(CC(=O)Nc2cccc(OC)c2)nnc1SCC(=O)NC1CCCCC1	i	-0.31
53	Cc1ccc(S(=O)(=O)N2CCN(C(=O)CN3C(=O)NC4(CCCCC4)C3=O)CC2)c(C)c1	i	-0.01
54	COc1ccc2cc(CN(CCO)C(=O)c3ccccc3F)c(=O)[nH]c2c1	i	1.9
55	COc1ccc(C)cc1NC(=O)CC1COc2ccccc2O1 (configuration not stated)	i	0.34
56	O=C(COc1ccc(-c2ccccc2)cc1)N1CCN(C(=O)c2cccnc2)CC1	i	-1.3
57	Cc1oc(-c2cc(F)ccc2F)nc1CN1CCCN(C(=O)c2ccco2)CC1	i	2.1
58	Cc1cc(-c2nnc(SCC(=O)N3C(C)CCCC3C)o2)no1 (configuration not stated)	i	0.03
59	CCOC(=O)Cn1nnc(-c2ccc(S(C)(=O)=O)cc2)n1	i	0.83
60	Cc1ccccc1N1CC(C(=O)Nc2ccc(S(=O)(=O)N3CCOCC3)cc2)CC1=O (configuration not stated)	i	-1.3

# Quoted from above: entries 31 to 33
no.	Structure	KCNQ2 block	KCNQ2 block baseline
31	C/C(=N\NC(=O)c1cccc(F)c1)c1cccc(NC(=O)c2ccc(F)cc2)c1	i	-0.36
32	CCCCNc1nc2c(c(=O)n(Cc3ccccc3)c(=O)n2C)n1C	i	-1.4
33	CCC(=O)NC(C)C(c1cccs1)N1CCOCC1 (configuration not stated)	i	0.01

# Carrying on.
no.	Structure	KCNQ2 block	KCNQ2 block baseline
61	O=c1oc(-c2ccco2)nc2ccccc12	i	-0.68
62	CCOC(=O)Cn1nnnc1CN(CCc1ccccc1)Cc1cc2cc(CC)ccc2[nH]c1=O	i	-0.05
63	O=C(Nc1ccccc1)[C@@H]1[C@@H]2C(=O)N(c3ccc(F)cc3)C(=O)[C@@H]2[C@H]2C=CC=NN21	i	0.06
64	O=C(COc1ccc([N+](=O)[O-])cc1)Nc1cc(S(=O)(=O)N2CCCCC2)ccc1N1CCCCC1	i	0.53
65	O=C(N1CCCCC1)N1CCC(c2nc3ccccc3[nH]2)CC1	i	-0.32
66	COCc1cc(C)nc(OCC(=O)N/N=C/c2ccc(-c3cc([N+](=O)[O-])ccc3Cl)o2)c1C#N	i	-0.1
67	Cc1ccc(Cl)cc1N1CCN(C(=O)c2cc3c(=O)[nH]c4ccccc4c3n2C)CC1	i	-2.9
68	CCN1C(=O)/C(=C\N2CCN(c3cccc(Cl)c3)CC2)SC1=S	i	1.7
69	O=C(Nc1ccccc1Oc1ccccc1)c1ccc(Br)o1	i	0.29
70	COc1ccc(-c2cc(C(=O)NCC3CCCO3)c3cc(C)ccc3n2)cc1 (configuration not stated)	-5.6*	-0.29*
71	Nc1nc(Cl)cc(Sc2ccc(F)cc2)n1	i	1.5
72	O=[N+]([O-])c1ccc2nc(-c3ccccc3)cc(-c3ccccc3)c2c1	i	-1
73	Cc1cc(C(=O)N[C@@H](c2ccccc2)[C@]2(C)C[C@H]2[C@@H](C)C(=O)Nc2ccc3ccccc3c2)no1	i	1.2
74	COc1cc2c(=O)n(CC3CCCO3)c(=O)n(CC(=O)Nc3ccccc3)c2cc1OC (configuration not stated)	i	0.09
75	O=C(N/N=C/c1ccccc1)C(O)c1ccccc1 (configuration not stated)	i	1.2
76	COc1ccc(CCC(=O)Nc2ccc(Cn3ccnc3)cc2)cc1	i	1.7
77	Cc1ccc(N2C(=O)N(CC(=O)c3cc(C)ccc3C)C(=O)C2C)cc1 (configuration not stated)	i	-2.2
78	C=CCNC(=O)c1c2c(nc3ccccc13)-c1ccccc1CC2	-7.6*	-2.7*
79	CCOc1ccc(-c2nc(CN3CCCCC3CCn3cccn3)c(C)o2)cc1 (configuration not stated)	i	-1.3
80	C/C(=N\NC(=O)c1ccncc1)c1cccs1	i	0.05
81	COC1=CC(=O)C[C@@H](C)[C@]12Oc1c(Cl)c(OC)cc(OC)c1C2=O	i	1
82	COc1ccc(C2NN=C(c3ccc(C)cc3)S2)cc1 (configuration not stated)	i	-0.36
83	Cc1c(NC(=O)COc2ncnc3ccccc23)c(=O)n(-c2ccccc2)n1C	i	1.5
84	CCNc1nc(NCC)nc(NC(N)=S)n1	i	-1.8
85	CCC/C(=N\NC(=O)CCC(=O)NCc1ccccc1)c1ccccc1	i	1.8
86	CCC1(C)Cc2ccccc2-c2nc[nH]c(=O)c21 (configuration not stated)	i	1.1
87	O=C(COC(=O)CCc1ccc(S(=O)(=O)N2CCCCC2)cc1)Nc1ccc2c(c1)OCO2	i	1.1
88	CCOC(=O)c1ccc(-n2c(C)nc3c(cnn3-c3ccc(Cl)cc3)c2=O)cc1	i	0.45
89	C=CCNC(=O)C1CC2c3ccccc3C1c1ccccc12 (configuration not stated)	i	0.22
90	Cn1c(C(=O)N2CCC(C(N)=O)CC2)cc2cc(Cl)ccc21	i	0.7

# Some of the entries so far, as labelled records.
69. O=C(Nc1ccccc1Oc1ccccc1)c1ccc(Br)o1
  KCNQ2 block: i | KCNQ2 block baseline: 0.29
88. CCOC(=O)c1ccc(-n2c(C)nc3c(cnn3-c3ccc(Cl)cc3)c2=O)cc1
  KCNQ2 block: i | KCNQ2 block baseline: 0.45

# Later entries
no.	Structure	KCNQ2 block	KCNQ2 block baseline
91	O=C(COc1ccc(S(=O)(=O)Nc2cccc(C(F)(F)F)c2)cc1)N1CCOCC1	i	-1.4
92	CN(Cc1ccccc1)C(=O)c1oc(=O)c2ccccc2c1-c1ccccc1	i	0.61
93	CN1C(=O)N(C)C2(c3ccccc3)N(C(C)(C)C)C(=O)NC12c1ccccc1 (configuration not stated)	i	-0.47
94	O=C1CSC(c2ccccn2)N1c1ccc(F)cc1F (configuration not stated)	i	0.81
95	COc1ccc(OC)c(NC(=O)CSc2ncccc2C(=O)O)c1	i	-0.39
96	CCOC(=O)c1sc(-c2ccc(OC)cc2)cc1NC(C)=O	i	-0.68
97	CC(=O)c1cc2c(cc1NC(=O)Nc1cccc(Cl)c1)OCCO2	-6.3*	2.7*
98	CCNC(=O)C(=O)NCC1CCCN1S(=O)(=O)c1cccs1 (configuration not stated)	i	-0.59
99	O=C(NCCCn1ccnc1)/C(=C/c1ccco1)NC(=O)c1cccs1	i	0.98
100	c1ccc2sc(N3CCN(Cc4nnnn4CC4CCCO4)CC3)nc2c1 (configuration not stated)	i	3.1
101	CCN(C(=O)c1ccco1)c1nc(-c2ccc(OC)cc2)cs1	i	0.06
102	O=C(NC1CCc2ccccc21)C12CN(Cc3ccccc3)CC1C(c1cccc([N+](=O)[O-])c1)=NO2 (configuration not stated)	i	1.9
103	O=[N+]([O-])c1ccc(CSc2nc3ccccc3o2)cc1	i	0.6
104	CC(C)(C)c1cc(CN2CCCC(O)C2)c(O)c(C(C)(C)C)c1 (configuration not stated)	i	0.59
105	COc1cccc(-c2ccc(SCC(=O)NCCc3ccccc3)nn2)c1	i	0.17
106	CCN1CNC(=S)N(CCc2ccccc2)C1	i	-1.4
107	O=C(c1ccc(S(=O)(=O)Cc2ccccc2F)c([N+](=O)[O-])c1)N1CCCCCC1	i	-0.01
108	Cc1ccc(N(CC(=O)NCC2CCCO2)C(=O)CCC(=O)Nc2cc(C)on2)cc1 (configuration not stated)	i	1.3
109	COc1ccc(C)cc1NC(=O)c1ccccc1NS(=O)(=O)c1cccc2cccnc12	i	-0.06
110	Cc1ccccc1CNC(=O)C1CCN(c2nnc(N3CCCC3=O)s2)CC1	i	0.23
111	COc1ccc(CC(=O)NNC(=S)Nc2ccccc2)cc1Br	i	1.6
112	CCOC(=O)c1c(NC(=O)COc2cccc3c2CCN(C)C3=O)sc2c1CCC2	i	0.57
113	COc1ccccc1/C=N/N1C(=O)c2cccc3cccc(c23)C1=O	i	-0.16
114	CCOC(=O)c1sc(NC(=O)CN2C(=O)NC3(CCCCCCC3)C2=O)c(C(=O)OCC)c1C	i	-0.06
115	CCOc1ccc2[nH]c(=O)c(CN(CCCN3CCOCC3)Cc3nnnn3Cc3ccc(OC)cc3)cc2c1	i	2.4
116	CCOC(=O)C1(Cc2ccccc2)CCN(Cc2cnn(CC)c2)CC1	i	-1.5
117	CC(C)Cn1ccc(=O)n(CC(C)C)c1=O	i	-0.23
118	O=C(NC1CCCCC1)C1CCN(C(=O)c2ccccc2Cl)CC1	i	1
119	CN(C)c1ccc(/C=N/NC(=O)c2ccc3c(c2)OCO3)cc1	i	1.6
